A488 fluor = compound autofluorescence in A488 spectral region; actives 0.1% (n = 59,000); max dye equivalency, M; compound autofluorescence, A488 spectral region, dye equivalency; active compounds read high; active = above 10 nM dye equivalent; inconclusive = 1 to 10 nM; inactive = 1 nM or less; about half of its hits are not listed in these tables;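 further: highest value over a series up to 38 µM; compound alone in buffer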
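Compounds pin-transferred into 100 mM Tris buffer, pH 8.0, incubated 15 min at room temperature, then imaged with 480 nm excitation/540 nm emission filters. Fluorescence converted to Alexa 488 dye-equivalent concentration via an on-plate six-point A488 standard curve.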
TSHR agonist = TSH receptor (human) agonism | actives 0.48% (n = 73,000) | P16473 | AID 926 | Potency, µM (series often up to 57.1 µM), inactives show at the highest dose activation, actives largely listed as activators | HEK293-CNG-TSHR cells (CNG channel as cAMP sensor), membrane potential dye, cAMP; active = well fitted activation curve of enough size with the parental cells flat; inconclusive = any curve in the parental cells; inactive = parental cells flat and receptor cells flat or falling; further: potency means the concentration at half of the fitted maximal effect; % of control where 0% means no effect; weak receptor curves with flat parental cells got no call and are not listed
Target sequence (P16473 whole entry, looked up): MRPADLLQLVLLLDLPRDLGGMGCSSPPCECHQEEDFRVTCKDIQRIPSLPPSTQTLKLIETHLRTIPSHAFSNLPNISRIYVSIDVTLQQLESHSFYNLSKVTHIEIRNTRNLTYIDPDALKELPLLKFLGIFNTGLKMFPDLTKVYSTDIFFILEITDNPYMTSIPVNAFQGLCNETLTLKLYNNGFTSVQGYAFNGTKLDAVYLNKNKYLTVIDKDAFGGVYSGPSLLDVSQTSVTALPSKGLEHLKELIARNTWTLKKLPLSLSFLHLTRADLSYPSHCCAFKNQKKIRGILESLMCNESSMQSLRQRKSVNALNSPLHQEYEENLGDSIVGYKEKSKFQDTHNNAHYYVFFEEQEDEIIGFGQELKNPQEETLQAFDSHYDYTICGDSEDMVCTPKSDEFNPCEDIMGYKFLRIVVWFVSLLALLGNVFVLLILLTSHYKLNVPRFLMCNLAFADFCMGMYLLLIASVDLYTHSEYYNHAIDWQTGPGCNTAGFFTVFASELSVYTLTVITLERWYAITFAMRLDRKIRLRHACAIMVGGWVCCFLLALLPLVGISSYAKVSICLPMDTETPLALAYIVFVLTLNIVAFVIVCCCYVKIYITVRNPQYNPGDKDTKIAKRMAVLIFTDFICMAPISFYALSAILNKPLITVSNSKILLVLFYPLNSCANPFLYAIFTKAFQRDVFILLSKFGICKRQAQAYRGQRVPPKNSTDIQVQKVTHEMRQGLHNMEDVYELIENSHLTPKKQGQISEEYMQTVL
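HEK 293 cells stably expressing TSHR and a modified CNG channel, with CNG-only parental cells as counterscreen, were preloaded 60 min at room temperature with membrane potential dye containing 100 uM RO 20-1724. Compound exposure was 30 min, and depolarization was read as fluorescence at 590 nm.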
AID923 = qHTS Assay for Allosteric/Competitive Inhibitors of Caspase-1: Spectroscopic Profiling in AFC Spectral Region; compound fluorescence, AFC spectral region (405/520 nm); almost no hit is shown here; AID 923, 2007; actives 1.1% (n = 75,000); Potency, µM (titrated, usually from 57.5 µM), without a hit: at the top dose fluorescence increase, actives largely listed as activators; active means well fitted activation curve with a large enough effect; inconclusive means small, poorly fitted or top-dose-only effect;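 further: potency means the concentration at half of the fitted maximal effect; 0% is about no effect; scaled to a free AFC standard on each plate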
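Baseline compound fluorescence (AFC region, 405 nm ex/520 nm em) taken from the intercept of kinetic reads with 50 nM caspase-1 and 5 uM Ac-WEHD-AFC; normalized to an on-plate AFC standard curve; compounds titrated up to 57 uM.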
A647 fluor = A647 region autofluorescence; 59,000 tested, under 10 active; Compound fluorescence, A647 channel (570/671 nm), Tris buffer; max dye-equivalent concentration, M; active means above 1 µM dye equivalent; inconclusive means 0.1 to 1 µM; inactive means 0.1 µM or less;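 further: values scaled relative to a standard on each plate; highest value over a series up to 38 µM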
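Compounds pinned into 100 mM Tris pH 8.0, 15 min at room temperature, then read with 570 nm excitation/671 nm emission filters. Fluorescence normalized to an on-plate six-point Alexa 647 standard curve, giving dye-equivalent concentration per compound concentration.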
Resorufin autofl = resorufin region autofluorescence; Compound fluorescence, resorufin region 547/598 nm, buffer; active compounds read high; max dye-equivalent concentration, M; actives 0.04% (n = 59,000); active = above 10 nM dye equivalent; inconclusive = 1 to 10 nM; inactive = 1 nM or less; a few of its hits are not listed in these tables; further: highest value over a series up to 38 µM
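Tris 100 mM pH 8.0; compound added, 15 min RT; CCD imager read, ex 547 nm/em 598 nm; signal normalized to resorufin standard curve (six concentrations per plate) as dye-equivalent concentration.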
An asterisk follows results filed as active; i = inactive; ? = inconclusive; nt = not tested or not shown; & = joins results of further samples; [ ] = another dose, or the depositor's remark.

The line under a structure holds: AID923	TSHR agonist	Resorufin autofl	A647 fluor	A488 fluor
Cc1ccc(N(C(=O)c2ccncc2)C2C=CS(=O)(=O)C2)cc1 (stereo not given)
 : -0.3%	4.2%	nt	nt	nt
O=C(O)CC1Sc2nc3ccccc3n2C1=O (stereo not given)
 : nt	nt	i	2.21e-08	i
CCOC(=O)N1CCC(Nc2c(NCCCN(C)Cc3ccccc3)c(=O)c2=O)CC1
 : -1.1%	-5.8%	nt	nt	nt
CCCCCc1c(C)nc(Nc2ccccc2)[nH]c1=O
 : 0.3%	3.6%	i	1.02e-08	i
O=C(CN1CCOc2ccccc21)N1CCC(Cc2ccccc2)CC1
 : 1.5%	5.0%	nt	nt	nt
CCCCOc1ccccc1NC(=O)Cn1c(-c2nonc2N)nc2ccccc21
 : -0.5%	?	i	1.09e-08	i
Cc1ccc(NC(=O)C2CC(=O)NC(N3CCc4ccccc43)=N2)cc1 (stereo not given)
 : 1.9%	0.2%	i	1.5e-09	i
COCCNC(=O)[C@H](C)[C@H]1C[C@]1(C)[C@H](NC(=O)OCc1ccccc1)c1ccccc1
 : 10.9%	?	nt	nt	nt
Cc1c(NC(=O)CSc2ccccn2)c(=O)n(-c2ccccc2)n1C
 : 1.0%	-2.9%	i	1.2e-09	i
Cc1noc(C)c1COc1ccc(C(=O)OCc2nnc(-c3ccc(Cl)cc3)o2)cc1
 : 0.7%	4.8%[11.4 µM]	i	1e-09	i
COc1cccc(NC(=O)N(CCCN2CCOCC2)C(C)c2cc3cccc(OC)c3o2)c1 (stereo not given)
 : -0.9%	?	i	2.1e-09	i
COc1ccc(CCNC(=O)CSc2nnnn2-c2ccccc2OC)cc1OC
 : 1.6%	5.4%	nt	nt	nt
COC(=O)c1[nH]c(C)c(/C(O)=C2\C(=O)C(=O)N(CCCN3CCOCC3)C2c2ccccn2)c1C (stereo not given)
 : 2.1%	0.1%	i	6.6e-08	i
CC(=O)N1CCN(CCN=CC2=C(O)CC(c3ccco3)CC2=O)CC1 (stereo not given)
 : -2.8%	8.4%[11.4 µM]	nt	nt	nt
COc1ccc(CNC(=O)C2COc3ccccc3O2)cc1 (stereo not given)
 : 1.2%	12.6%	i	5.1e-09	i
FC(F)(F)c1cc(CN2CC3(CCNCC3)C2)cc(C(F)(F)F)c1
 : 3.0%	?	i	9.1e-09	i
COC(=O)CN(C)C1CC(=O)N(c2ccc(Cl)cc2)C1=O (stereo not given)
 : 4.8%	9.3%	i	2.39e-08	i
CCn1c(COc2ccccc2C)nnc1SCC(=O)CC(=O)Nc1ccccc1OC
 : 2.9%	13.8%[11.4 µM]	i	2.73e-08	i
O=C(Cc1ccc(-n2cccc2)cc1)N1CCc2ccccc21
 : 0.9%	-2.3%	i	2.45e-08	i
CN(c1ccc(C(=O)NCCSC(C)(C)C)cc1)S(C)(=O)=O
 : 1.4%	-11.2%	i	1.7e-09	i
CCC(C)NC(=O)CSc1nnc(-c2ccncc2)n1-c1ccc(OC)cc1 (stereo not given)
 : 0.2%	5.8%	i	7.03e-08	i
CCOC(=O)c1cccc(NC(=O)CS(=O)(=O)Cc2nc(-c3cccc(OC)c3)oc2C)c1
 : -0.2%	?	i	2.2e-09	i
O=C(NCCCn1ccnc1)c1cc2c(s1)CCCCC2
 : 1.7%	9.8%	i	1e-09	i
COc1cccc(C(=O)OCC(=O)Nc2ccccc2N2CCOCC2)c1
 : -1.7%	5.9%	i	5.7e-09	i
O=C(NCc1ccccc1)c1ccc(-c2ccccc2F)o1
 : -2.2%	32.0%	i	7.48e-08	i
Cc1cc(=O)oc2cc(OCC(O)CN3CCN(c4ccccc4)CC3)ccc12 (stereo not given)
 : 1.3%	-19.6%	i	1.75e-08	i
CN1C(=S)SC(/[N+]([O-])=C\c2cccs2)C1(C)C (stereo not given)
 : 0.8%	1.6%	i	1.86e-08	i
COC(=O)c1ccc(CSc2ncn[nH]2)o1
 : 4.4%	-5.7%[11.4 µM]	nt	nt	nt
Fc1cccc(-c2cc3nc4c(c(N5CCC6(CC5)OCCO6)n3n2)CCCC4)c1
 : 0.4%	?	i	4.01e-08	i
N#CCSc1nnc(-c2ccccc2)c(-c2ccccc2)n1
 : -2.2%	17.5%	nt	nt	nt
OCCN1CCN(CC(O)COc2ccc3c(c2)OCO3)CC1 (stereo not given)
 : 2.8%	-0.3%	i	4.89e-08	i
Cc1cc(NC(=O)COC(=O)C(Nc2ccc(C(F)(F)F)cc2Cl)C(C)C)no1 (stereo not given)
 : -6.5%	?	i	1.3e-09	i
CCCCc1c(C)c2ccc(OCC(C)=O)cc2oc1=O
 : nt	nt	i	2e-09	i
Nc1c(Nc2ccccc2)c2ccccc2oc1=O
 : -0.2%	2.2%	i	1e-09	i
O=S(=O)(c1ccccc1)N1CCC[C@@]2(CCN(c3ccncc3)C2)C1
 : 0.8%	?	i	1e-09	i
O=C(OCC#CCSc1nc2ccccc2s1)c1ccco1
 : -1.7%	39.4%	i	1e-09	i
Cn1c(=O)c2c(nc(NCc3ccccc3)n2CC(=O)NCc2ccccc2)n(C)c1=O
 : 0.5%	-1.3%	i	4.55e-08	i
COC(=O)c1ccccc1NC(=O)c1nc2nc(C)cc(C)n2n1
 : -1.7%	0.9%	i	1.93e-08	i
COc1ccc(-c2nnn(CC(=O)N(CCO)C(C(=O)NC3CCCC3)c3ccc(F)cc3)n2)cc1 (stereo not given)
 : -0.8%	?	i	1e-09	i
CCOC(=O)N1CCN(S(=O)(=O)c2ccc3c(c2)CCN3C(=O)C2CCC2)CC1
 : -1.4%	nt	i	1.86e-08	i

Look-ups from the list:
CCOC(=O)N1CCC(Nc2c(NCCCN(C)Cc3ccccc3)c(=O)c2=O)CC1 in AID923 has -1.1%
FC(F)(F)c1cc(CN2CC3(CCNCC3)C2)cc(C(F)(F)F)c1 in A647 fluor has 9.1e-09
CCOC(=O)c1cccc(NC(=O)CS(=O)(=O)Cc2nc(-c3cccc(OC)c3)oc2C)c1 in AID923 has -0.2%

Next part
The line under a structure holds: AID923	TSHR agonist	Resorufin autofl	A647 fluor	A488 fluor
CC(Nc1n[nH]c(=S)[nH]c1=O)C(=O)OCc1ccccc1 (stereo not given)
 : 0.3%	-3.8%	nt	nt	nt
CCn1nc(NC(=O)c2cccnc2)c2cc3cccc(C)c3nc21
 : 0.6%	17.4%	i	1e-09	i
CC(C)Oc1ccc(/C(O)=C2/C(=O)C(=O)N(CCN3CCOCC3)C2c2ccccc2)cc1 (stereo not given)
 : nt	nt	i	1e-09	i
Cc1occc1C(=O)n1nnc2ccccc21
 : 0.9%	nt	i	2.5e-09	i
COCCN(CC(=O)NCc1ccccc1)C(=O)CCC(=O)Nc1ccccn1
 : 0.5%	2.6%[11.4 µM]	i	3.26e-08	i
COc1ccc(NC(=O)c2[nH]c(C)c(C(C)=O)c2C)cc1Cl
 : -0.3%	-61.0%[inhibitor]	i	4.07e-08	i
Cn1c(SCC(=O)c2cc3ccccc3o2)nnc1-c1ccccc1
 : 0.5%	4.7%	nt	nt	nt
COc1cccc(OCc2nc3ncc(Br)cc3[nH]2)c1
 : 0.6%	4.2%	i	1e-09	i
CSc1ncc(Cl)c(C(=O)C(C#N)c2nc3c(C)cc(C)cc3c(=O)[nH]2)n1 (stereo not given)
 : -1.0%	?	i	3.8e-09	i
O=C(c1cccnc1)N1CCN(C(=O)c2cccs2)CC1
 : -0.7%	-3.8%	i	1e-09	i
CC(C)Oc1ccc(N2CC(C(=O)Nc3ccccc3F)CC2=O)cc1 (stereo not given)
 : -2.0%	6.4%	i	7.19e-08	i
Cc1ccc(-c2nc(CS(=O)CC(=O)NCc3ccc(Cl)cc3)c(C)o2)cc1 (stereo not given)
 : -2.1%	?	nt	nt	nt
O=C(CCN1C(=O)c2ccccc2C1=O)N1CCN(C(=O)c2ccccc2)CC1
 : -0.5%	25.1µM*	i	9.7e-09	i
COC(=O)c1ccc(Oc2nc(N3CCCCC3)nc(N3CCOCC3)n2)cc1
 : 1.8%	nt	i	4.4e-09	i
CC(Cc1ccccc1)C(=O)Nc1ccccc1 (stereo not given)
 : 0.1%	12.5%	nt	nt	nt
CCn1c(SCC(=O)N(C(C)C)C(C)C)nnc1-c1cc2ccccc2cc1O
 : -1.2%	14.7%	i	5.7e-09	i
O=C1C2CCCN2C(c2ccccc2F)N1c1ccc(F)cc1 (stereo not given)
 : -0.9%	-7.3%	i	1e-09	i
O=C(O)CN1CCNCC1
 : 0.6%	?	i	2.87e-08	i
CCOC(=O)c1ccccc1NC(=O)c1cc2sccc2n1C
 : -0.9%	?	i	1.15e-08	i
CN1CCN(c2ncnc3ccc(-c4cccnc4)cc23)CC1
 : 0.7%	4.2%	i	1e-09	i

Shown as labelled records: 2 of the compounds above
CC(Nc1n[nH]c(=S)[nH]c1=O)C(=O)OCc1ccccc1 (stereo not given)
  AID923: 0.3%
  TSHR agonist: -3.8%
  Resorufin autofl: nt
  A647 fluor: nt
  A488 fluor: nt
CCn1nc(NC(=O)c2cccnc2)c2cc3cccc(C)c3nc21
  AID923: 0.6%
  TSHR agonist: 17.4%
  Resorufin autofl: i
  A647 fluor: 1e-09
  A488 fluor: i

The listing continues.
The line under a structure holds: AID923	TSHR agonist	Resorufin autofl	A647 fluor	A488 fluor
O=C(CCC(=O)c1cccs1)NCc1ccccc1
 : 1.1%	7.8%	i	3.5e-09	i
CCC(=O)O[C@]1(C(=O)CCl)[C@@H](C)C[C@H]2[C@@H]3CCC4=CC(=O)C=C[C@]4(C)[C@@]3(F)[C@@H](O)C[C@@]21C
 : nt	nt	i	3.62e-08	i
CCCn1c(SCC(=O)c2ccc3c(c2)OCCO3)nnc1-c1ccco1
 : 1.8%	14.9%	i	6.32e-08	i
O=C(CNC(=O)c1ccco1)NCC(=O)OCc1cccc(C(=O)Oc2ccccc2)c1
 : -1.9%	3.4%	i	2.6e-09	i
CCN1CCN(C(c2cccs2)C(C)NC(=O)c2ccco2)CC1 (stereo not given)
 : 1.2%	-16.0%	i	3.31e-08	i
C[C@H](Cc1ccc(O)c(O)c1)[C@@H](C)Cc1ccc(O)c(O)c1
 : -3.4%	-19.1%&-22.0%	i	4.1e-09&3.8e-08	i
Cc1ccc(CNc2oc(-c3ccco3)nc2C#N)cc1
 : 0.9%	5.0%	i	1.49e-08	i
CCS(=O)(=O)N1CCCC(C(=O)NCc2cccc(OC)c2)C1 (stereo not given)
 : 0.2%	5.2%	i	7.6e-09	i
COc1ccc(CNc2cc(-c3ccccc3OC)ncn2)c(OC)c1
 : 3.3%	?	i	1e-09	i
COC(=O)C(C#N)C(=C1C(=O)CC(C)(C)CC1=O)c1ccc(O)cc1 (stereo not given)
 : -0.7%	4.2%	nt	nt	nt
O=C(CC(SCCO)c1ccc2c(c1)OCO2)c1cccs1 (stereo not given)
 : 2.7%	-0.6%	i	3.49e-08	i
CCNS(=O)(=O)c1ccc(NC(=O)c2ccccc2OCC)cc1
 : -1.5%	8.7%	i	1.6e-09	i
Cc1c(NS(=O)(=O)c2ccc(Br)s2)c(=O)n(-c2ccccc2)n1C
 : -2.1%	5.5%	i	5.8e-09	i
CN(C1CCS(=O)(=O)C1)S(=O)(=O)c1cccc2nsnc12 (stereo not given)
 : nt	nt	i	1e-09	i
Cc1cc(C)nc(SCC(=O)N2CCCCC2)n1
 : 0.3%	-2.1%	nt	nt	nt
Cc1c(NC(=O)CN2C(=O)C3C4C=CC(C4)C3C2=O)c(=O)n(-c2ccccc2)n1C (stereo not given)
 : 4.0%	4.3%	i	1e-09	i
O=C1NC2(CCCCC2)Oc2ccccc21
 : -1.1%	12.5%	i	2.43e-08	i
CCOCC(=O)Nc1sc2c(c1C(=O)OCC)CCCC2
 : -3.0%	?	i	5.4e-09	i
Clc1ccc(OCc2nn3c(-c4ccco4)nnc3s2)cc1
 : -1.3%	?	i	1.52e-08	i

Compound activity as filed in PubChem BioAssay.

Only part of the results is shown; the hit share may differ from the screen's.
